From PubChem BioAssay
ugtP null kill: growth inhibition of S. aureus ugtP deletion strain. S. aureus RN4220 ugtP deletion, OD600 growth, 16 h; some inactives read as strong as hits. growth inhibition, % (concentration not given with the values). 330,000 compounds, 0.54% hits;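 active = z-score under -3 and OD600 up to 0.15 on both plates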;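 also: plate controls were untreated wells for no effect and antibiotic for full effect; wells of about 80 µL received 100 nL stock; the first replicate is given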
Autofluor counter: compound fluorescence in toxin protease inhibitor counterscreen; compound autofluorescence counterscreen, microsphere flow cytometry; active compounds read high; fluorescence intensity (test concentration not listed); 360,000 compounds, 3.1% hits;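 active = at least 3 SD above the mean of all compounds, about 16000 in these data; inconclusive = too few beads counted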;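 also: 100 nL of 1 mM stock went into each well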
PrP 5UTR inh: inhibition of PrP 5' UTR reporter expression | cell-based PrP 5' UTR mRNA reporter, plate reader | inhibition, % (concentration not given with the values) | 340,000 compounds, 0.35% hits | AID 488862;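 active = every replicate at 50% or more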;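 also: 0 = median of the neutral control wells; tested in H4 reporter cells; numbers are from one replicate; inactives centre near -14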
Mtb hypoxia rep: inhibitors of hypoxia-regulated fluorescent reporter in Mycobacterium tuberculosis; M. tuberculosis hypoxia-regulated fluorescent reporter, fluorescence; AID 1159583; fluorescence inhibition, % (no concentration beside the values); 300,000 compounds, 0.1% hits;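 active = 35 to 45% if threefold the growth effect, above 45% if 1.5-fold the growth effect; inactive = the rest, general growth blockers included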;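 also: wells of about 50 µL received 100 nL stock; 0% = vehicle wells and 100% = reference inhibitor wells; whole bacteria with a GFP reporter of the hypoxia response; strong numbers were not always called active; many hits fall short of the cut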
RN4220 kill: kills Staphylococcus aureus RN4220 | S. aureus RN4220 growth, OD600, 16 h | inhibition, % (concentration not given with the values) | 330,000 compounds, 0.33% hits | AID 1259311;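 active = z-score of -3 or lower and OD600 up to 0.18 on both plates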;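 also: plate controls were untreated cells for no effect and reference antibiotic for full effect; stock transfer was 100 nL into about 80 µL; one replicate is shown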
BJeLR viability: kills HRASV12-expressing BJeLR cells. AID 1554. inhibition, % (test concentration not listed). BJeLR (HRASV12) viability, CellTiter-Glo ATP luminescence, 48 h; reference of the scale not given here. 300,000 compounds, 0.17% hits;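 active = replicate mean above 50%; inconclusive = above 50% but judged a plate artefact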;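 also: 50 nL library stock added to about 25 µL; numbers are from one replicate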
Mtb hypoxia rep growth: second read-out of Mtb hypoxia rep, no call of its own (marks repeat the call); growth inhibition, %; measured here: M. tuberculosis growth (absorbance);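 0% = vehicle and 100% = reference antibiotic; read after six days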
Active calls of the source: *; ? = inconclusive; . = no result given; & = joins results of further samples.

Below each compound – ugtP null kill	Mtb hypoxia rep	PrP 5UTR inh	Autofluor counter	RN4220 kill	BJeLR viability	Mtb hypoxia rep growth
> O=C(N/C(=C/c1ccco1)C(=O)N1CCOCC1)c1cccs1
  11	10	-23	4148	4.3	0	19
> CC(=NNC(=O)COc1cccc(C)c1)c1cccnc1
  3	5	-11	7673	3.8	.	9
> CCc1nc(Sc2nnnn2-c2ccccc2)c2c3c(sc2n1)CCCC3
  23	5	-14	2571	7.0	11	2
> CCCCCC1=CCCC1=NNC(=O)c1ccc2c(c1)OCO2
  4	8	.	.	8.3	.	-1
> COc1ccc(NN=C(C(N)=O)C2=NC(C)(C)Cc3ccccc32)cc1
  2	9	.	.	-0.9	.	5
> O=C(c1cnn(C(=O)c2ccco2)c1)c1ccccc1O
  1	-7	-8	4902	7.9	.	3
> Oc1ccccc1N=Cc1sc2ccccc2c1Cl
  -8	37*	-29	2453	7.6	-1	24*
> O=C(Oc1ccc(N(Cc2cccs2)C2=NS(=O)(=O)c3ccccc32)cc1)c1ccccc1F
  6	13	-16	22943*	-0.8	2	2
> Cn1c(NCCCO)nc2ccccc21
  7	13	-19	8895	0.0	-1	6
> c1ccc(N2CCN(c3ncnc4sc5c(c34)CCC5)CC2)cc1
  -2	.	-13	4598	4.0	4	.
> C[C@H](NC(=O)C1CC(=O)N(c2ccc3c(c2)OCO3)C1)C(=O)NC1CCCCC1 (stereo partly drawn)
  8	2	-20	3920	5.1	5	15
> CCCc1cc(=O)[nH]c2nnc(SCC(=O)Nc3nnc(CC)s3)n12
  8	0	-20	4953	0.1	-2	0
> CC(=O)c1ccc(N2CCN(C(=O)/C=C/c3ccc(S(=O)(=O)N4CCOCC4)cc3)CC2)cc1
  8	1	-15	4654	6.4	1	-3
> N#CCc1ccc(NC(=O)c2ccc(CN3CCc4ccccc4C3)cc2)cc1
  5	5	0	3856	7.4	7	8
> Cc1cc(C)n(CC(O)COCc2ccccc2)n1 (stereo not drawn)
  -4	10	-8	20483*	2.4	-2	5
> Cc1ccc(OCC(=O)Oc2cccc(C)c2)cc1
  0	6	.	5939	3.8	2	14
> CC(C)(C)NC(=O)COc1ccc(CNCc2cccs2)cc1
  1	7	-6	9004	1.5	11	15
> O=C(c1ccc(Cl)s1)N1CCOCC1
  13	8	-12	7999	4.5	-4	2
> CCOC(=O)c1ccc(NC(=O)C(CC)(CC)C(=O)OCC)cc1
  17	1	-18	18219*	9.6	3	3
> COc1ccccc1NS(=O)(=O)c1ccc(C(=O)NCCCN2CCOCC2)cc1
  2	0	-22	?	0.6	.	0
> Cc1cccc(-n2c(SCC(=O)NCC3CCCO3)nc3ccccc3c2=O)c1C (stereo not drawn)
  3	3	-7	8558	2.0	.	6
> COc1cc(/C=N/NC(=O)c2cccnc2)ccc1OCC(=O)Nc1ccc(C)cc1
  .	.	-15	2348	.	-11	.
> Cc1cc(C(F)(F)F)nn1CC(=O)N(C)c1ccccc1
  4	8	-14	4155	-0.1	9	10
> COc1ccc(-c2csc(NC(=O)C3=COCCO3)n2)cc1OC
  -14	5	-52	6409	1.5	.	0
> COC(=O)c1cn(C(=O)c2ccc(Br)o2)c2ccccc12
  3	5	-28	2598	4.0	2	7
> COc1cccc(C2=NN(S(C)(=O)=O)C(c3cccs3)C2)c1 (stereo not drawn)
  3	12	-30	4427	13	5	9
> CC(C)c1ccc(O)c(NC(=S)NC(=O)CCc2ccccc2)c1
  -3	3	-30	4425	-2.5	3	5
> Cc1nc(N2CCCC2)c2nnn(Cc3ccccc3Cl)c2n1
  4	-2	8	20754*	1.8	-4	8
> CCOc1cc(C(=O)NCCOC)cc(OCC)c1OCC
  8	.	0	2472	3.2	8	.
> CC1CCN(CC(=O)c2ccc3c(c2)OCCO3)CC1
  7	-11	-91	4682	8.2	-7	3
> CC(CCC(C)C)=NNc1cc(C)c2ccccc2n1
  2	10	.	.	4.0	.	0
> CN(Cc1ccc(OC(F)F)cc1)C(=O)c1cccc(S(=O)(=O)N2CCN(Cc3ccccc3)CC2)c1
  5	-8	-13	?	18	.	2
> O=C(NCCc1ccc(Cl)cc1)C1=CC=CN2CCS(=O)(=O)N=C12
  4	7	-37	3546	1.9	.	6
> Cc1nnc(NC(=O)C2CCN(S(=O)(=O)c3ccc(Cl)cc3)CC2)s1
  1	3	-5	3303	-0.8	2	2
> CC(=O)Nc1cccc(Oc2ncccc2[N+](=O)[O-])c1
  6	14	-20	3632	3.3	-3	4
> O=C(O)CCCC(=O)NCc1ccccn1
  0	2	-25	3579	3.1	-2	3
> CN1CCc2nc(NC(=O)COc3ccc4ccccc4c3)sc2C1
  -2	10	-43	6325	-0.4	10	4
> Cc1ccc(S(=O)(=O)N(C)c2ccc(OCC(=O)Nc3ccc(C(=O)N(C)C)cc3)cc2)cc1C
  -2	-18	-19	9170	-0.4	.	-1
> COc1ccc(-c2ccc([C@H]3[C@H]4C=CC[C@@H](C)[C@@H]4C(=O)N3Cc3ccccc3)c(F)c2)cc1
  .	.	-16	2982	.	7	.
> CCOC(=O)C1=C(CP(=O)(c2ccccc2)c2ccccc2)NC(=O)NC1c1ccc(OC)cc1 (stereo not drawn)
  .	.	-11	2390	.	10	.
> Cc1ccccc1NC(=O)C1Cc2ccccc2CN1C(=O)c1ccco1 (stereo not drawn)
  4	7	-28	4111	5.0	-5	7
> O=C(c1ccc(S(=O)(=O)N2CCOCC2)cc1)N1CCc2ccccc2C1
  6	7	-11	4562	5.4	-1	1
> O=c1c2ccccc2nc(/C=C/c2ccco2)n1-c1ccccc1O
  92*	25	41	3583	96*	-10	22
> CCN(CC(=O)NCc1cccs1)C(=O)/C=C/c1cc(OC)c(OC)c(OC)c1
  11	3	-20	5215	1.7	.	4
> COc1cc(OC)c(NC(=O)[C@@H]2CCC(=O)N2C2OC(=O)c3c2ccc(OC)c3OC)cc1Cl (stereo partly drawn)
  -6	.	-21	4135	-0.9	2	.

Reformatted in markdown: three of the compounds above.
| SMILES | ugtP null kill | Mtb hypoxia rep | PrP 5UTR inh | Autofluor counter | RN4220 kill | BJeLR viability | Mtb hypoxia rep growth |
| --- | --- | --- | --- | --- | --- | --- | --- |
| O=C(NCCc1ccc(Cl)cc1)C1=CC=CN2CCS(=O)(=O)N=C12 | 4 | 7 | -37 | 3546 | 1.9 | . | 6 |
| Cc1nnc(NC(=O)C2CCN(S(=O)(=O)c3ccc(Cl)cc3)CC2)s1 | 1 | 3 | -5 | 3303 | -0.8 | 2 | 2 |
| CC(=O)Nc1cccc(Oc2ncccc2[N+](=O)[O-])c1 | 6 | 14 | -20 | 3632 | 3.3 | -3 | 4 |

The results go on.
Below each compound – ugtP null kill	Mtb hypoxia rep	PrP 5UTR inh	Autofluor counter	RN4220 kill	BJeLR viability	Mtb hypoxia rep growth
> COCCNC(=S)N(CCCO)Cc1cc2cc3c(cc2[nH]c1=O)OCCO3
  8	12	-24	4252	0.8	1	2
> O=C(Nc1ccc(S(=O)(=O)N2CCOCC2)cc1)c1ccccc1
  9	3	4	3428	3.4	-2	6
> Cc1cc(C)cc(NC(=O)C(OC(=O)c2ccc([N+](=O)[O-])o2)c2ccccc2)c1 (stereo not drawn)
  8	2	1	2499	5.1	-3	-1
> COc1ccccc1N1CCN(C(=S)NC(=O)/C=C/c2ccc(F)cc2)CC1
  13	-5	.	5451	5.9	1	-9
> Cc1ccc(C(=O)NCC(=O)OCC(=O)c2ccc(Cl)s2)cc1
  8	13	-3	6027	3.8	-9	6
> COc1ccc(-n2c(C)nc3cc(C(=O)NCCN4CCOCC4)ccc32)cc1
  26	1	-1	23270*	-2.7	.	2
> Cc1csc(SCC(=O)Nc2ccc(F)cc2Cl)n1
  9	10	-2	?	5.3	.	6
> CCN1CCCC1CNC(=O)c1c(O)c(Cl)cc(Cl)c1OC (stereo not drawn)
  3&-1	4&-1	.	.	3.5&7.9	.	-1&4
> COc1ccc(C(=O)Nc2ccc(Cl)cc2C(=O)NCCN2CCOCC2)cc1
  -3	6	-26	.	-2.1	-1	7
> COc1ccc(S(=O)(=O)N(C)C)cc1NC(C)C(=O)Nc1cccc(C#N)c1 (stereo not drawn)
  15	5	-31	3301	-0.6	-24	6
> N#Cc1ccc(CN2CCN(C(=O)CNC(=O)Cc3cccc4ccccc34)CC2)cc1
  11	5	-16	5424	-1.3	.	5
> Cc1ccc(C)c(S(=O)(=O)NCC(c2ccc3c(c2)OCO3)N2CCOCC2)c1 (stereo not drawn)
  3	6	-4	.	11	2	-2
> Cc1ccc(NC(=O)C(C)c2cccc(C(=O)c3ccccc3)c2)cc1O (stereo not drawn)
  -6	-12	-6	2402	1.0	4	10
> CCOC(=O)C1=C(O)C(Nc2nc3ccccc3s2)(C(F)(F)F)N=C1C (stereo not drawn)
  -2	8	-1	15744	2.7	-2	3
> CC1CN(CCOCCSc2ccccc2)CC(C)O1 (stereo not drawn)
  2	8	-22	2520	10.0	-18	2
> CCOC(=O)c1oc2ccccc2c1NC(=O)c1ccc(Cl)s1
  6	.	5	5784	10	12	.
> CCCCCOC(=O)CSc1n[nH]c(=O)[nH]c1=O
  3	-2	-1	22105*	1.5	-4	1
> CCN1CCN(C(=O)CN(c2ccc(F)cc2)S(=O)(=O)c2ccc(OC)c(OC)c2)CC1
  4	13	-5	6242	3.7	-3	6
> Nc1nonc1C(=O)NN=Cc1cccc([N+](=O)[O-])c1
  -3	8	.	.	1.6	.	0
> N#C/C(=C\c1ccc(F)cc1)C(=O)Nc1ccccn1
  9	-4	-1	3187	3.5	7	-3
> O=C(Nc1ccc(N2CCOCC2)cc1)c1cccc(S(=O)(=O)N2CCC(Cc3ccccc3)CC2)c1
  2	.	-21	2403	0.9	-2	.
> N#Cc1ccccc1NC(=O)CSc1nnc(-c2ccccc2)n1-c1ccccc1
  12	.	1	3480	0.2	-1	.
> CN(C)CCNC(=O)C(=O)Nc1cc2c3c(c1)CCC(=O)N3CCC2
  1	-1	-15	5667	1.7	1	0
> O=C(COC(=O)CCS(=O)(=O)c1ccccc1)NC(=O)c1ccc(OC(F)F)cc1
  1	3	-7	5229	2.0	4	-3
> Clc1ccc2nc(N3CCCCC3)sc2c1
  10	11	-136	2435	16	1	-4
> COc1ccc(CNC(=O)COC(=O)c2ccc(Br)o2)cc1
  -3	4	-9	8630	-4.6	.	13
> Cc1ccc2c(c1)COc1c3ccc(C(=O)O)cc3nn1-2
  0	2	2	3869	8.0	23	2
> O=C(Nc1nnc(C2=COCCO2)o1)c1ccc(F)cc1
  -5	5	-1	5259	16	0	4
> CCN(Cc1ccccc1)C(=O)Cn1cc(S(=O)(=O)NC)c(S(=O)(=O)NC)c1
  9	-8	-26	3756	2.9	-5	5
> COC(=O)c1ccc(S(=O)(=O)N2C3CCC2CC(NC(=O)NC2CCCCC2)C3)cc1 (stereo not drawn)
  5	10	-21	4206	7.0	-3	10

Not a hit list; any-hit rate near 4%.
